Compound activity from PubChem.
miR-21 reporter = qHTS Assay for Modulators of miRNAs and/orActivators of miR-21 | Potency, µM (doses to about 38.3 µM), for inactives: top-dose reporter change, positive = more light | 340,000 tested, under 10 active | HeLa miR-21 FLuc reporter, luciferase, 48 h; active = well fitted rising curve with a large enough effect; inconclusive = small, poorly fitted or top-dose-only effect; inactive = no such curve, though single readings can be large or run the other way;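 note: % of control where 0% means no effect; miR-21 action dims this reporter so a rising signal means less miR-21 action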
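HeLa cells endogenously expressing miR-21, stably carrying CMV-driven firefly luciferase with a downstream miR-21 binding site, 2000 cells/well. Titrations up to approximately 40 uM, 48 hours; luciferase luminescence read.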
Rango dissoc inh = qHTS Assay for Inhibitors of RanGTP induced Rango (Ran-regulated importin-beta cargo) - Importin beta complex dissociation | Potency, µM (doses to about 46.1 µM), for inactives: at the top dose activity change, negative = inhibition | Biochemical FRET Rango-importin beta, RanGTP-induced dissociation | 340,000 compounds, 0.071% hits; active means falling FRET ratio curve, often poorly fitted, with flat reads before Ran was added; inconclusive means other falling curves, or compound fluorescence or quenching; inactive means flat or rising ratio curve;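 note: potency is the fitted concentration of half-maximal effect; % of control where 0% means no effect; nearly all actives have a fitted effect of over 45% in size; -100% = wells without RanGTP and RCC1; the record marks most hits as doubtful in a second field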
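Compounds preincubate 5 min with complex of recombinant Rango and importin beta in PBS with 1 mM DTT. Ran (0.6 uM) loaded with 2 mM GTP plus 0.2 uM RCC1 starts dissociation; FRET is recorded 45 min later.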
Rango-impB inh = qHTS Assay for Inhibitors of Rango (Ran-regulated importin-beta cargo) - Importin beta complex formation; Importin subunit beta-1 (Homo sapiens), Q14974; Rango CFP/YFP FRET sensor + importin beta, 45 min; Potency, µM (doses to about 92.2 µM), for inactives: top-dose inhibition of complex formation; 340,000 compounds, 0.031% hits; AID 540263, 2011; active = rising FRET ratio curve, often small or poorly fitted; inconclusive = mostly compound fluorescence or quenching in the first reads; inactive = flat curves in all reads;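 note: potency is the fitted concentration of half-maximal effect; 0% = DMSO wells and 100% = buffer wells lacking importin beta; nearly all actives have a fitted effect of over 15% in size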
Target sequence (Q14974 whole entry, looked up): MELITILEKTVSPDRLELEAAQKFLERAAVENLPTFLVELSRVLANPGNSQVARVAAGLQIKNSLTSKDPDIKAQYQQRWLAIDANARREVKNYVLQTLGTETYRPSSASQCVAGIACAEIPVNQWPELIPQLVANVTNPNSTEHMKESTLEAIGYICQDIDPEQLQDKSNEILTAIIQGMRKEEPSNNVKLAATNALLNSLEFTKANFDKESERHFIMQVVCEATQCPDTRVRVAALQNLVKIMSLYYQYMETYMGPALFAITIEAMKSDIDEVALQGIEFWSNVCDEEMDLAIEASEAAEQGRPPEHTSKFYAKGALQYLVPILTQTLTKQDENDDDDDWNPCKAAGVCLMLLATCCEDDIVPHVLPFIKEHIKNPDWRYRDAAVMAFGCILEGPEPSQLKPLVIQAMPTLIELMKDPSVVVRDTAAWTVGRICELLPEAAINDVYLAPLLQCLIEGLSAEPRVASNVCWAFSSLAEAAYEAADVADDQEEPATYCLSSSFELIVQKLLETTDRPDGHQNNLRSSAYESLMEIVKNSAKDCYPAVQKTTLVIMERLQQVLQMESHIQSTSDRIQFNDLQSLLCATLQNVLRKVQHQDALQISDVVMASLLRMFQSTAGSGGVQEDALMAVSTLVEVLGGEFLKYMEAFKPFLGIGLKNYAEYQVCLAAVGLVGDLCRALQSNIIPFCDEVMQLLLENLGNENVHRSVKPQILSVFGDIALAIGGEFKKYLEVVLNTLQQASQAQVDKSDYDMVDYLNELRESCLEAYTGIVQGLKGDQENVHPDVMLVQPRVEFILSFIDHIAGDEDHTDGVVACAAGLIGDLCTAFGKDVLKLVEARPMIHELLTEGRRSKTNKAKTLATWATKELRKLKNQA
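Inhibition scored from the CFP 486 nm/YFP 530 nm FRET ratio 45 min after adding 0.125 microM importin beta to 50 nM Rango biosensor preincubated 5 min with compound (room temperature, PBS with DTT, Tween-20, BSA). No-importin wells as positive control.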
GLA inh pH 4.5 = qHTS Assay for Inhibitors of Human alpha-Galactosidase at pH 4.5; Alpha-galactosidase A (Homo sapiens), P06280; purified enzyme, 4-MU-alpha-Gal fluorescence, pH 4.5; activity change, negative = inhibition, % at 105 µM; 230,000 tested, under 10 active; AID 1467, 2008; inconclusive = small, poorly fitted or top-dose-only inhibition, or a rising curve; inactive = flat fitted curve, though single readings scatter; no compound was filed as active;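 note: 0% = full activity with enzyme and -100% = basal without enzyme; dose as in the result columns while the protocol names 77 µM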
Active calls of the source: *; ? = inconclusive; / = no result given; & = joins results of further samples.

SMILES	miR-21 reporter	Rango dissoc inh	Rango-impB inh	GLA inh pH 4.5
CS(=O)(=O)c1ccccc1-c1nnc(NC(=O)c2ccc3ncsc3c2)o1	/	5%	2.5%	/
CCCCOc1ccc(C2C(=O)N(C3CCCCC3)CC(=O)N2CC2CCCO2)cc1 (centres undefined)	-5%	-13%	-1.6%	2
COc1cc(C(=O)Nc2cnc(NC(=O)C(C)C)cc2C)cc(OC)c1OC	1%	9%	-0.2%	-12
COc1ccc(CCC(=O)Nc2nc3ccccc3[nH]2)cc1	-29%	2%	-1.9%	2
CC(CN(C)Cc1ccccc1)OC(=O)C1COc2ccccc2O1 (centres undefined)	1%	-3%	0.1%	2
O=C(CSc1n[nH]c(-c2ccccc2Br)n1)NC(=O)NCc1ccco1	1%	-11%	-4.3%	-5
Cc1c(Cc2ccccc2)c(=O)oc2c(C)c(OCc3nn[nH]n3)ccc12	3%	0%	1.4%	-9
Cc1cccc(C(=O)Nc2ccc(NC(=O)CN3CCOCC3)cc2)c1	-3%	10%	5.5%	/
CC(Nc1nc(-c2ccc(F)cc2)cs1)c1nc2cc(C(F)(F)F)ccc2n1CCCO (centres undefined)	/	24%	2.1%	/
CC1CCN(CC(=O)c2c[nH]c3ccccc23)CC1	-17%	27%	-5.3%	3
O=S(=O)(c1ccc(Cl)cc1Br)N1CCCCC1	-3%	-9%	3.0%	-1
Cc1ccc(N2C(=O)C3ON(c4ccccc4)C(c4ccncc4)C3C2=O)cc1 (centres undefined)	-5%	-4%	1.4%	-4
Cn1c(=O)c2c(nc(SCC(=O)Nc3ccccc3N3CCCCC3)n2C)n(C)c1=O	-11%	1%	0.5%	-6
COc1ccc(CCNC(=O)C(=O)NCC2OCCN2S(=O)(=O)c2ccc(Br)cc2)cc1 (centres undefined)	21%	3%	?	4
COc1cc(OC)cc(-c2c(C#Cc3ccsc3)c3cc(-c4ccc(SC)cc4)ccc3n2C)c1	/	13%	-0.2%	/
Cc1ccc(S(=O)(=O)NCC(=O)OCC(=O)NCc2cccs2)cc1	/	-5%	0.1%	/
CCOC(=O)N1CCN(S(=O)(=O)c2c(C)nc3scc(C)n3c2=O)CC1	2%	-4%	3.8%	/
CC1=C(C(=O)OCc2ccccc2)C(c2cccnc2)n2ncnc2N1 (centres undefined)	-3%	-10%	-0.2%	-1
CC(C)C(NC(=O)C1CCCCC1)C(=O)Nc1ccc2c(c1)OCCO2 (centres undefined)	-39%	-10%	2.2%	7
CC(C)N(CCO)C(=O)CCc1nnc(CCCc2ccccc2)o1	-30%	18%	1.5%	7
COc1ccc(OC)c(CN2CCN(C(=O)c3cccc(S(=O)(=O)Nc4ccc(F)cc4)c3)CC2)c1	/	13%	3.9%	/
Cc1ccnc2nc(C(=O)Nc3ccc(S(=O)(=O)N4CCCC4)cc3)nn12	-1%	39%	3.0%	-2
COc1cccc(-c2sc3ccccc3c2-c2ccc(OCCN3CCCC3)cc2)c1	/	5%	6.4%	/
Cc1ccc(OCCC(=O)Nc2c(C)n(C)n(-c3ccccc3)c2=O)cc1	-10%	-6%	-1.1%	1
COc1ccccc1-n1c(SCC(=O)N(C)C)nnc1-c1ccco1	/	-7%	0.7%	/
Continued:
SMILES	miR-21 reporter	Rango dissoc inh	Rango-impB inh	GLA inh pH 4.5
CN(C)CCCN(C(=O)c1ccc(S(=O)(=O)N(C)Cc2ccccc2)cc1)c1nc2c(F)cccc2s1	0%	-5%	-1.9%	/
S=c1[nH]nc(-c2cc(-c3ccccc3)n[nH]2)n1/N=C/c1ccc(Br)s1	-22%	-9%	6.9%	-11
O=c1c2ccccc2ncn1Cc1ccco1	-6%	-18%	2.9%	-2
Cc1c(C)c2ccc(OCC(=O)Nc3ccc(CN4CCOCC4)cc3)cc2oc1=O	0%	-3%	-1.2%	/
COc1ccc(CCN2CC34C=CC(O3)C(C(=O)NCc3ccccc3Cl)C4C2=O)cc1OC (centres undefined)	-4%	-9%	-0.6%	-5
CC1CCN(C(=O)C(C)Sc2nc(-c3ccccc3)cc(C(F)(F)F)n2)CC1 (centres undefined)	10%&4%	-1%	-3.7%	-6
CCOc1ccc(NC(=O)C(c2ccccn2)N(C(=O)CCl)c2ccc(OC)cc2)cc1 (centres undefined)	-34%	-14%	-4.1%	3
CN(C)S(=O)(=O)c1ccc(NC(=O)CSc2nnc(-c3ccco3)o2)cc1	/	0%	0.4%	/
COc1ccc2sc(N(CCCN(C)C)C(=O)c3ccc(C(=O)c4ccccc4)cc3)nc2c1	/	5%	0.5%	/
CCCc1cc(=O)oc2cc(C)cc(OCc3nn[nH]n3)c12	-2%	-9%	-1.1%	-1
Cc1cc(C)c(NS(=O)(=O)c2c(C(=O)N3CCOCC3)c(C)n(C)c2C)c(C)c1	0%	-6%	-1.0%	/
COc1ccc(S(=O)(=O)NC2CCCCC2)cc1F	-2%	-3%	0.1%	/
O=C(COC(=O)c1ccccc1N1C(=O)C2C3CCC(C3)C2C1=O)c1ccccc1 (centres undefined)	-10%	-13%	4.4%	2
CCOc1ccc(N=C(C)c2ccccc2O)cc1	-4%	-9%	-1.8%	0
O=C(CN1CCCC1)N1c2ccccc2Sc2ccccc21	-5%	0%	-0.4%	0
Cc1sc(N)nc1-c1c(C)n(C)c2ccccc12	-3%	-3%	0.3%	/
COc1ccc(NC(C)=O)cc1S(=O)(=O)NC(C)c1ccc(-n2ccnc2)cc1 (centres undefined)	/	-6%	?	/
COc1ccc(-c2sc3cc(OC)ccc3c2-c2ccc(OCCN3CCOCC3)cc2)cc1	/	-6%	2.1%	/
O=S(=O)(NC(=NCCc1ccc(Cl)cc1)c1ccccc1Cl)c1cccs1	17%	1%	1.6%	-1
Cc1c(OCC(=O)NC2CC(C)(C)NC(C)(C)C2)ccc2c3c(c(=O)oc12)CCC3	-9%	6%	1.9%	/
Nc1ccccc1SCc1c(Cl)cccc1Cl	-19%	-2%	-0.5%	-3
Cc1ccc(NC(=S)NCCc2c[nH]c3ccccc23)cc1	-16%	-5%	5.3%	-2
CC1=NC(Nc2nc(C)c3ccccc3n2)=NC(C)(C)C1	14%	-11%	?	1
Oc1ccccc1O	/	6%	-4.8%	-2
CN(C)c1cc[n+](CC(=O)Nc2c(Cl)cc(Cl)cc2Cl)cc1	4%	2%	0.5%	9

Ordered by SMILES length (high to low): part of the list above
SMILES	miR-21 reporter	Rango dissoc inh	Rango-impB inh	GLA inh pH 4.5
Cc1c(OCC(=O)NC2CC(C)(C)NC(C)(C)C2)ccc2c3c(c(=O)oc12)CCC3	-9%	6%	1.9%	/
CN(C)S(=O)(=O)c1ccc(NC(=O)CSc2nnc(-c3ccco3)o2)cc1	/	0%	0.4%	/
O=S(=O)(NC(=NCCc1ccc(Cl)cc1)c1ccccc1Cl)c1cccs1	17%	1%	1.6%	-1
CCCc1cc(=O)oc2cc(C)cc(OCc3nn[nH]n3)c12	-2%	-9%	-1.1%	-1
CC1=NC(Nc2nc(C)c3ccccc3n2)=NC(C)(C)C1	14%	-11%	?	1

Remaining list, next part:
SMILES	miR-21 reporter	Rango dissoc inh	Rango-impB inh	GLA inh pH 4.5
Cn1cccc1C(=O)OCC(=O)NC(=O)c1ccc(Cl)cc1	/	-16%	?	/
O=[N+]([O-])c1ccc(N2CCN(CCO)CC2)cc1Sc1nc2ccccc2[nH]1	-9%	-11%	0.0%	-10
CC1(C)SC2c3ccccc3C(=O)N2[C@@H]1C(=O)NCCCN1CCOCC1 (some centres undefined)	-3%	5%	-2.2%	8
CCOC(=O)c1c(NC(=O)c2ccccc2N(C)S(=O)(=O)c2ccccc2)sc2c1CCCC2	26%	16%	-0.4%	-1
CSc1ccc(/C=C(\C(=O)O)c2ccc(S(=O)(=O)N3CCCC3)s2)cc1	/	-21%	-8.1%	/
CCOCCc1nn2c(=O)cc(CSCC(=O)Nc3ccc(OC)cc3)nc2s1	0%	0%	0.5%	/
Cc1ccc(OCC(=O)Nc2ccccc2C(=O)NC2CC2)cc1C	-5%	-7%	0.1%	/
O=C(COC(=O)CNS(=O)(=O)c1ccc2ccccc2c1)Nc1ccccc1Sc1ccccc1	-6%	1%	-1.7%	-8
CC(=O)c1ccc(NC(=O)Nc2ccc3c(c2)N(C)C(=O)CS3)cc1	16%	0%	-1.1%	-6
CCc1nn2c(=O)c(S(=O)(=O)Nc3ccccc3)c(C)nc2s1	10%	-2%	0.4%	/
COc1ccc(CCNC(=O)Cn2cnc3ccccc3c2=O)cc1OC	-6%	-1%	0.2%	7
O=C(CS(=O)c1ccc(Br)cc1)N1CCOCC1 (centres undefined)	-3%	8%	-0.9%	/
CC(C)C(NC(=O)c1ccccc1)c1nnc(SCC(=O)NC2CCCC2)n1C (centres undefined)	2%	1%	1.5%	/
O=C(CSc1ccc(Br)cc1)Nc1ccccc1Oc1ccccc1	-1%	14%	-0.1%	3
Cc1ccc(NC(=O)COC(=O)C(NS(=O)(=O)c2ccc(Cl)cc2)C(C)O)c(Br)c1 (centres undefined)	1%	3%	-3.7%	4
CCC(C)CCN1CCN=C1N(C)C (centres undefined)	/	9%	-6.0%	/
O=C1CSC(=Nc2ccc(F)cc2)N1	0%	1%	-0.2%	/
N#CCCN(C(=O)COC(=O)CNS(=O)(=O)c1ccc2ccccc2c1)c1ccccc1	/	12%	-3.6%	/
Cc1ccc(C(=O)NC(=S)Nc2ccc3[nH]c(=O)[nH]c3c2)cc1C	-11%	12%	-0.2%	-2
CC(=O)Nc1cccc(NC(=O)CN2c3cccc4cccc(c34)S2(=O)=O)c1	/	3%	-2.1%	/
C[C@@H](C(=O)Nc1ccc(OC(F)F)c(Cl)c1)N1C(=O)C2CC=CCC2C1=O (some centres undefined)	/	-4%	0.2%	/
CCOc1cc(/C=N/NC(=O)C2CCCC2)ccc1OC(C)C	-2%	1%	0.1%	/
Cc1nc2nc(C)c(NS(=O)(=O)c3ccc(C(C)(C)C)cc3)c(=O)n2[nH]1	2%	3%	0.6%	/
Cc1ccc(CN(C)C(=O)c2ccccc2NC(=O)c2ccccc2)o1	/	0%	0.1%	/
CCC(=O)N1CCN(c2ccc(NC(=O)COc3cccc(C)c3C)cc2)CC1	4%	7%	1.0%	/
Next records:
SMILES	miR-21 reporter	Rango dissoc inh	Rango-impB inh	GLA inh pH 4.5
O=C(COC(=O)C1CCN(S(=O)(=O)c2ccc3c(c2)OCCO3)CC1)Nc1ccccc1OC(F)F	3%	-2%	-2.7%	-17
O=C(Cc1ccc(S(=O)(=O)N2CCOCC2)s1)NCCOc1ccccc1	/	-8%	-1.8%	/
COc1cc(/C=N/O)ccc1OCc1ccccc1Cl	-85%	1%	-2.4%	-24
Cc1nn(C2CCS(=O)(=O)C2)c2nc(C3CC3)cc(C(=O)Nc3cccc(C#N)c3)c12 (centres undefined)	/	6%	0.6%	/
CC(C)C(NC(=O)c1ccccc1NC(=O)c1ccco1)C(=O)NNC(=O)c1ccncc1 (centres undefined)	-3%	-4%	-2.7%	0
Cc1ccc(S(=O)(=O)N2CCN(C(=O)COC(=O)CNC(=O)c3ccc(Cl)cc3Cl)CC2)c(C)c1	/	0%	-2.5%	/
Nc1nc(N)c(C=Nc2ccc(Br)cc2)c(Nc2ccc(Br)cc2)n1	-36%	-26%	?	-9
CCCn1c(NC(=O)CCS(=O)(=O)c2ccc(C)cc2)nc2ccccc21	/	?	?	/
CCN(CC)C(=O)CNC(=O)c1nn(-c2ccc(OC)c(Cl)c2)c(=O)c2ccccc12	-11%	-17%	0.6%	/
CCN(CC)S(=O)(=O)c1ccc2oc(SCC(=O)NC3CC3)nc2c1	-11%	0%	3.2%	/
CCOc1ccccc1OCCCC(=O)OCC(=O)Nc1cccc(Cl)c1	-13%	-12%	-3.8%	-2
O=C(O)c1ccccc1C(=O)Nc1nc(-c2ccccc2)cs1	-2%	-7%	5.0%	/
O=C(NC1CCCC1)c1ccc(CS(=O)Cc2ccc(Cl)cc2)o1 (centres undefined)	-3%	-13%	0.4%	/

The list is partial; count on the stated rates, not on these rows.
